# Sfp inh: Sfp phosphopantetheinyl transferase inhibition; Biochemical Sfp PPTase activity, qHTS; Potency, µM, without a hit: max response, negative = inhibition, actives largely listed as inhibitors; 310,000 compounds, 3.5% hits; active means well fitted inhibition curve with a large enough effect; inconclusive means small, poorly fitted or top-dose-only effect, or another doubt; inactive means no such curve, though single readings can be large or run the other way;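 further: the enzyme is Sfp with the accession as filed and its product quenches rhodamine fluorescence; potency means the concentration at half of the fitted maximal effect; 0% = enzyme reaction without inhibitor and -100% = no enzyme wells; top concentration of the series not given in the record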
#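 Reaction rates are the 30-min fluorescence difference (ex 525, em 598 nm) in wells containing 15 nM Sfp, 5 uM rhodamine-CoA and 12.5 uM BHQ-2-YbbR at pH 7.6 with 10 mM MgCl2.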
# PINK1 expr mod: modulators of PINK1 expression; AID 624263; PINK1 immunofluorescence, high-content cytometry, 24 h; Potency, µM (doses to about 76.6 µM), for inactives: at the highest dose activation (PINK1 increase), actives largely listed as activators; 410,000 compounds, 0.2% hits; active = well fitted activation curve with a large enough effect; inconclusive = small, poorly fitted or top-dose-only effect; inactive = flat fitted curve, though single readings scatter; cell line not stated here;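 further: potency means the concentration at half of the fitted maximal effect; % of control where 0% means no effect; nearly all actives have a fitted effect of over 65% in size; a mitochondrial uncoupler was the plate control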
#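 Cells are seeded, rested 12 hours, then given compound at five concentrations or DMSO for 24 hours. After fixation, blocking and antibody staining, PINK1 amount and mitochondrial localization are scored; CCCP serves as control.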
# TRPV1 PAM: human TRPV1 potentiation; TRPV1-expressing cells, Fluo-8 calcium influx, capsaicin EC20 potentiation; host cell line not named in the record; control for the full effect not named in the record; potentiation, % at 8.33 µM; 320,000 compounds, 0.02% hits; AID 540277; active means potentiation above 80%; inconclusive means 30% to 80%; inactive means below 30%; further: 0% is about no effect
# Target sequence (Q8NER1 whole entry, looked up): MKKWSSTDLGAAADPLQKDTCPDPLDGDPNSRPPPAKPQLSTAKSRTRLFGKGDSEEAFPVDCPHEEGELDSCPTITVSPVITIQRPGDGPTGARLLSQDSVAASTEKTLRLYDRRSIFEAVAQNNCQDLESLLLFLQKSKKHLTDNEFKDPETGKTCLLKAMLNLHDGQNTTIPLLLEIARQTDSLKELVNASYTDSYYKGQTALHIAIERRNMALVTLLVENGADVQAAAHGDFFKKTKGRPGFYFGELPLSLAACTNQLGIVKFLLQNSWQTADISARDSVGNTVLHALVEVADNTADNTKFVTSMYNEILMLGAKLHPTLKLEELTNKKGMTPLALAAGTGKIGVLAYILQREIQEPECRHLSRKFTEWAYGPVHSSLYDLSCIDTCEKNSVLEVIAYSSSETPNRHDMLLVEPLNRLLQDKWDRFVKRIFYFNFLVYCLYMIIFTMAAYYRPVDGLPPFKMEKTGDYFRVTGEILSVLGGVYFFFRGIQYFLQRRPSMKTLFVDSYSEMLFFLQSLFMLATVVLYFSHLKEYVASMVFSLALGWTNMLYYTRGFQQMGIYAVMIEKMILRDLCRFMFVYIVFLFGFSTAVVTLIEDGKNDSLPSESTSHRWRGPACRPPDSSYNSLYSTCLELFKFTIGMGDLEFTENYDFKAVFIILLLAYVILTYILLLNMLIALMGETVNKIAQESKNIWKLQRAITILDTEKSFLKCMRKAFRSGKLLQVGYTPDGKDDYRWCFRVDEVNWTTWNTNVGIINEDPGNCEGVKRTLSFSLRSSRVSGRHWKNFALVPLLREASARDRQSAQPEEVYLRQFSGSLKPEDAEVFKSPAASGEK
#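 Cells expressing TRPV1 were dye-loaded with Fluo-8 and read kinetically: 10 s baseline, 3 min after compound (agonist portion), then 2 min after EC20 capsaicin (allosteric enhancer portion). Calcium-bound dye fluorescence at 480/520 nm.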
# ClpP mod: qHTS Assay for Activators of ClpP; Potency, µM (series often up to 57.5 µM), inactives show at the highest dose activity change, negative = active; AID 651965, 2013; 340,000 compounds, 1.9% hits; purified B. subtilis ClpP, FRET peptide cleavage, 20 min; active = well fitted falling curve with a large enough effect; inconclusive = small, poorly fitted or top-dose-only effect; inactive = no such curve, though single readings can be large or run the other way; further: potency means the concentration at half of the fitted maximal effect; the source files actives as falling curves though it sought activators and does not explain the sign; nearly all actives have a fitted effect of over 65% in size; many hits overshoot -100%
# Target sequence (P80244 whole entry, looked up): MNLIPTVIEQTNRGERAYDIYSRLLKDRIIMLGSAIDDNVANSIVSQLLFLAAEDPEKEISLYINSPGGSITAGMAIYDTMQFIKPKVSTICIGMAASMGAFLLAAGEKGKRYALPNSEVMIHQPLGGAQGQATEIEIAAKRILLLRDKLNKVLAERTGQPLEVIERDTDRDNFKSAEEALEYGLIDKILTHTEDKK
#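 FRET quenching reversal measured ClpP activation: 10 microg/mL B. subtilis ClpP at pH 8 with the FRET-FV decapeptide, read at 430 nm after 320 nm excitation. The 20-min minus 0-min signal was scaled between DMSO/no-enzyme wells and ADEP (5.8 microM final).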
# TRPML1 agonist: agonists of human TRPML1 channel. Q9GZU1. TRPML1-expressing cells, Ca2+ dye fluorescence, FDSS; host cell line not named in the record; reference of the full effect not given here. activation, % (no concentration beside the values). 410,000 compounds, 0.12% hits. AID 624414; in the data active = activation above about 50%; inconclusive = about 30% to 50%; inactive = below about 30%; further: 0% is about no effect; the text of the record puts the active cut at 80%
#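 In this qHTS format, compounds were pin-transferred onto Ca8-dye-loaded TRPML1-DL cells induced with Tet overnight, and intracellular Ca2+ fluorescence was recorded kinetically for 110 s after a 10 s baseline. A subsequent 4uM final 54-4 (EC80) addition followed by a second 110 s read served as the antagonist phase.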
# Menin MLL FP FL: inhibitors of human menin-MLL interaction, wild-type MLL peptide | Fluorescence polarization, fluorescein-MLL peptide displacement from menin | FP activity change, % at 61.4 µM | 290,000 tested, under 10 active | AID 1766; inconclusive = falling polarisation curve, or a change in total fluorescence; inactive = total fluorescence flat and polarisation flat or rising; no compound was filed as active; the % refers to the polarisation; negative = inhibition;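 further: % of control where 0% means no effect; inhibitors lower the polarisation; unlabelled MLL peptide was the positive control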
# TRPML1 inh: human mucolipin-1 channel inhibition; TRPML1-inducible cells, Ca2+ dye fluorescence, FDSS; hits give low values; inhibition of EC80 agonist-evoked calcium signal; activity change, negative = inhibition, % (concentration not given with the values); 390,000 compounds, 0.02% hits; in the data active means activity change below about -50%; inconclusive means about -30% to -50%; inactive means above about -30%;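 further: stimulus is agonist 54-4 at its EC80 concentration; on the % scale 0 is the no-effect control and ±100 the full control effect; the text of the record puts the active cut at -80%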
#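 TRPML1-DL cells, Tet-induced overnight (~16 h, 37 °C) at 1,500 cells/well, were loaded with Ca8 no-wash dye plus quencher for 45-90 min at room temperature. Compounds were pinned during FDSS kinetic reading; agonist 54-4 at EC80 (4 uM final) then added.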
# * hit, by the source's call; ? = inconclusive; · = not tested or not shown; & = joins results of further samples; [ ] = dose if it differs, or a comment. Rows were taken by chance; 4.4% or so of the library scored in one or more.
SMILES,Sfp inh,PINK1 expr mod,TRPV1 PAM,ClpP mod,TRPML1 agonist,Menin MLL FP FL,TRPML1 inh
Cc1cccc(NC(=O)COC(=O)c2ccc(S(=O)(=O)N3CCCCCC3)cc2)c1,·,?,-0.4,-3.3%,-0.3,·,5.8
CCOC(=O)c1ccc(N2C(=O)c3[nH]nc(-c4ccc(OCC)cc4)c3C2c2cccs2)cc1 (configuration not stated),·,1.8%,·,-18.9%,0.2,·,-0.1
CC(=O)N1CCc2ccc(S(=O)(=O)N3CCc4ccccc43)cc21,-13.9%,8.5%,23.6,0.5%,0.6,-2.6,15.5
Cc1cc(=O)[nH]c(N/N=C/c2ccc([N+](=O)[O-])cc2)n1,0.1%,·,13.5,·,·,-0.6,·
Cc1ccc(S(=O)(=O)N2CCCOC2CNC(=O)C(=O)NCc2ccco2)cc1 (configuration not stated),9.4%,0.8%,-4.2,-5.1%,1.6,6.7,7.2
O=C(Nc1ccc(Cl)cc1C(F)(F)F)c1cc(S(=O)(=O)NCc2ccccc2)ccc1F,·,-0.3%,·,28.6%,0.1,·,50.5
O=C(C1CCN(Cc2nc(Cc3cccc(F)c3)no2)CC1)N1CCOCC1,16.7%,-0.4%,-4.3,·,-0.2,1.4,5.2
COc1cccc(Sc2ccccc2/C=N/NC(N)=O)c1,10.8%,8.6%,1.3,·,0.3,-1.1,-7.3
CCc1cccc(CC)c1NC(=S)N1CCn2cccc2C1c1cccnc1 (configuration not stated),0.0%,2.9%,-0.8,-13.0%,1.0,-1.1,-0.5
Cc1ccc(CN2CCSc3ccc(C(=O)NCc4cccnc4)cc32)cc1,-6.4%,0.8%,-11.2,4.5%,1.8,-2.7,35.9
COc1ccccc1C(=O)Nc1cccc(OCc2cc(=O)n3c(C)csc3n2)c1,·,11.8%,·,?,-0.3,·,8.3
NC(=O)NC(=O)CN1C(=O)NC(c2ccccc2)(c2ccccc2)C1=O,10.4%,3.0%,4.4,·,1.4,-5.5,-9.8
O=C(CNC(=O)c1ccco1)NCC(=O)OCc1cccc(Cl)c1,22.5%,-1.4%,-18.7,-2.5%,0.2,3.2,-15.0
FC(F)(F)Oc1ccccc1C(c1nnnn1C1CCCCC1)N1CCN(C/C=C/c2ccccc2)CC1 (configuration not stated),·,-0.2%,·,-1.3%,?,·,·
COc1ccccc1NC(=O)CN1C(=O)COc2ccc(S(=O)(=O)N3CCOCC3)cc21,20.4%,1.1%,3.4,0.4%,0.6,2.1,-18.0
COC[C@@H]1NS(=O)(=O)c2ccc(Br)cc2O[C@H]1c1ccccc1,·,-0.8%,·,-1.1%,-0.3,·,-0.6
COc1ccc(S(=O)(=O)NC(C)C(=O)NCc2ccncc2)cc1OC (configuration not stated),8.2%,2.4%,-0.8,0.1%,-1.5,-3.4,-8.8
N[C@@H](CO)c1nnc([C@H](Cc2ccc(O)cc2)NC(=O)C2CCNCC2)o1,-26.2%,0.8%,18.0,1.4%,-0.3,-5.1,15.7
O=C(NCc1cccc(Cl)c1)c1ccc(CS(=O)Cc2ccc(Cl)cc2)o1 (configuration not stated),0.4%,0.2%,-3.4,-0.4%,-0.1,-6.5,16.3
CCOC(=O)N1CCN(C(=O)CSc2nnc(-c3ccc(C)c(C)c3)o2)CC1,-2.5%,1.6%,-12.9,0.2%,1.7,2.4,2.2
O=C(CCC(=O)OCc1cccc([N+](=O)[O-])c1)Nc1ccc(F)cc1,15.1%,0.9%,2.8,-0.6%,0.5,2.7,15.6
COCCN(C(=O)CSc1nnc(-c2ccccc2F)o1)c1c(N)n(CC(C)C)c(=O)[nH]c1=O,·,-0.8%,-19.4,·,-0.6,·,1.8
COc1c(C)cc(C(=O)C2CCCN(C(=O)CCc3scnc3C)C2)cc1C (configuration not stated),-5.7%,2.4%,-4.1,0.7%,·,2.5,·
COc1ccccc1NC(=O)C1=C(C)Nc2nnnn2C1c1cc(Br)c(O)c(OC)c1 (configuration not stated),·,1.9%,·,2.3%,4.8,·,-16.6
CCS(=O)(=O)c1c(Nc2ccc(F)c(Cl)c2)sc(C(=O)c2ccccc2)c1N,·,5.8%,·,-7.5%,-0.2,·,-17.1
# The list continues:
SMILES,Sfp inh,PINK1 expr mod,TRPV1 PAM,ClpP mod,TRPML1 agonist,Menin MLL FP FL,TRPML1 inh
Cc1cc(C(=O)Nc2sc3c(c2C#N)CCC(C)C3)no1 (configuration not stated),26.4%,7.1%[38.3 µM],·,-12.5%,2.9,2.2,-3.9
COc1ccc(CNS(=O)(=O)c2ccc(S(=O)(=O)NC3CC3)cc2)cc1,0.6%,-0.1%,3.1,·,0.5,-2.7,-11.8
CCC(=O)NC(=S)Nc1ccc(N2CCOCC2)cc1,5.8%,1.5%,22.7,·,-0.2,-4.0,-5.0
COc1ccccc1C#Cc1ccc2c(=O)c3ccccc3n(C)c2c1,-11.3%,-0.9%,-8.9,?,0.9,4.6,7.2
COc1ccc(CNC(=O)C2(C)Cc3ccccc3C(=O)O2)cc1 (configuration not stated),-3.3%,0.3%,12.8,-1.0%,0.4,0.0,-2.3
CCOC(=O)c1c(C)n(-c2ccccc2)c2ccc(OCCN(C)C)cc12,-23.7%,-0.3%,-11.3,-7.7%,1.5,-7.6,-17.9
c1ccc(CCN2CN=C(Nc3nc4ccccc4o3)NC2)cc1,16.2%,3.7%[38.3 µM],-3.4,11.1%,1.0,2.0,22.0
CCCCCCCCCCCCCCCCCCNc1ccn(C2OC(COP(=O)(O)OCC3OC(n4cc(F)c(=O)[nH]c4=O)CC3O)C(O)C2O)c(=O)n1 (configuration not stated),·,17.9%,·,1.0%,0.5,·,-12.1
COc1ccc(CC(=O)Nc2ccncc2Cl)cc1,3.9%,1.3%,3.7,0.4%,-0.3,·,-2.5
COc1ccc(C)cc1NC(=O)c1nnn(Cc2cccc(Br)c2)c1N,·,10.5%,·,653.2%,0.7,·,-6.9
CCOc1ccc(NC(=O)c2ccc(NC(=O)c3ccc(CN4CCOCC4)cc3)cc2)cc1,16.2%,3.1%,-8.0,-4.6%,-0.1,0.1,-17.1
CC(C)(C)OC(=O)N1CCC(CC2CC(c3cccc(Br)c3)=NO2)(C(=O)NCC2CCCCC2)CC1 (configuration not stated),7.9%,2.5%,11.6,1.1%,0.5,1.7,-15.0
O=C(O)CCn1c(SCc2cccc3ccccc23)nc2ccccc21,12.4%,-0.3%,6.1,0.0%,-1.5,-2.7,-8.7
NS(=O)(=O)c1ccc(NC(=O)CSc2ccc3ccccc3n2)cc1,-3.6%,-0.7%,1.8,0.2%&-2.9%,-0.7&1.2,5.5,-4.4&-5.5
CC(=O)c1cccc(NC(=O)/C(=C\c2ccco2)NC(=O)c2cccs2)c1,4.0%,-1.7%,·,-0.6%,0.1,3.7,-15.4
Cc1ccc(CSc2ccc(S(=O)(=O)N3CCCCC3)cn2)cc1,·,8.0%,-1.9,-3.7%,2.6,·,2.7
CN(C(=O)CSc1nnc(-c2ccncc2)n1C)C1CCS(=O)(=O)C1 (configuration not stated),-17.5%,1.8%,-3.9,-10.2%,-0.5,-1.9,-5.0
COc1ccc(N=C2SC(CC(=O)Nc3ccccc3)C(=O)N2Cc2ccccn2)cc1 (configuration not stated),-14.2%,-1.7%,-20.1,·,0.2,2.2,2.0
CCOC(=O)c1ccc(NC(=O)N2CCN(C(=O)c3ccco3)CC2)cc1,-2.0%,-0.7%,-0.5,-0.5%,2.0,-3.1,13.5
COc1ccc(/C=N/NC(=O)c2cnccn2)cc1O,17.8%,-0.2%,-7.0,2.7%,-0.1,1.9,-7.6
Cc1ccc(N2C(=O)N3[C@H]4c5ccccc5OC[C@@H]4[C@@H](c4ccccc4)[C@@]3(C)C2=O)cc1,15.6%,0.9%,3.4,-2.6%,-0.6,-1.1,-15.4
COc1cccc(/C=C(/C(=O)OCC(=O)NC2CCCC(C)C2C)c2ccccc2)c1 (configuration not stated),2.9%,?,-5.1,0.2%,25.3,8.9,-4.9
C=CCSc1nnc2c(n1)OC=Nc1ccccc1-2,-8.6%,0.8%,?,-1.4%,1.5,-0.2,2.3
N#Cc1ccccc1S(=O)(=O)N1CCC(Oc2ccc(-n3cnnn3)cc2)CC1,·,0.0%,·,-2.3%,0.3,·,-6.9
OCCN(Cc1nc(-c2ccc3c(c2)OCO3)no1)Cc1cccs1,5.2%,0.5%,-4.2,-1.2%,-0.1,5.5,12.9
# Continuation:
SMILES,Sfp inh,PINK1 expr mod,TRPV1 PAM,ClpP mod,TRPML1 agonist,Menin MLL FP FL,TRPML1 inh
Fc1ccccc1-c1cc2cc3c(cc2cn1)OCO3,·,0.5%,·,-17.0%,0.4,·,5.9
Cc1ccc(C(O)c2ncc(-c3ccc(Cl)cc3)[nH]2)c(C)c1 (configuration not stated),·,3.9%,·,0.2%,-0.9,·,·
COc1ccc(NC(=O)CSc2nnc(NC(=O)C3CCC3)s2)cc1,-7.7%,14.7%,-11.9,·,0.0,-6.7,14.9
N#C/C(N=Nc1ccccc1O)=N\Nc1ccccc1O,·,?,22.2,0.3%,0.3,·,-8.2
COC(=O)c1c(NC(=O)c2c(Cl)cnn2C)sc(C)c1C,-15.7%,2.9%,-1.0,3.8%,0.3,-1.9,2.6
CN(Cc1ccccc1)C(=O)c1ccc(NC(=O)Cc2cccc(NC(=O)C3CCCN(C(=O)C4CCCCC4)C3)c2)cc1 (configuration not stated),·,-1.0%,12.1,-3.9%,0.8,·,14.1
COc1cc(C(=O)NCC(=O)OCn2nnc3ccccc3c2=O)cc(OC)c1OC,17.5%,1.4%,5.2,5.7%,-0.2,-3.0,2.6
O=C(NCCCN1CCOCC1)c1onc(CSc2ccccc2)c1C(=O)NCCCN1CCOCC1,·,-0.2%,·,0.4%,-0.4,·,3.9
CC(C)c1nc(C(=O)N2CCCC(N3CCN(c4cccc(Cl)c4)CC3)C2)cs1 (configuration not stated),5.9%,-0.5%,-7.8,-1.8%,0.4,-2.4,13.4
COc1ccccc1CNC(=O)c1ccc2c(c1)sc1nc(-c3ccc(F)cc3)cn12,·,0.1%,·,4.3%,0.3,·,6.0
COCCN(C(=O)Cc1cccs1)C(C(=O)NCc1ccc(OC)cc1)c1ccc(OC)cc1 (configuration not stated),-2.0%,-0.8%[38.3 µM],28.7,1.2%,-0.5,3.6,-7.3
O=C(CS(=O)(=O)c1cn(CC(=O)N2CCOCC2)c2ccccc12)NCc1ccccc1,·,1.7%,·,2.4%,0.1,·,7.4
Cc1ccc(C(=O)CSc2nnc3ccccn23)c(C)c1,6.2%,3.2%,0.3,0.0%,0.4,0.4,14.2

# High-throughput results deposited in PubChem by National Center for Advancing Translational Sciences (NCATS).
